High-throughput results from PubChem BioAssay.
Anthrax LT inh: anthrax lethal toxin internalization inhibition; Cells, anthrax lethal toxin internalization, FRET ratio (460/530); Potency, µM (titrated, usually from 40 µM), without a hit: at the top dose activity change, negative = inhibition, usual class: inhibitors; 70,000 tested, 0.67% active; active = well fitted falling ratio curve with the 530 nm signal flat; inconclusive = other ratio curves, or a change in one channel alone; inactive = flat curves in the ratio and both channels; the % refers to the ratio; note: % is set by controls: 0 for no effect and ±100 for the full control effect; nearly all actives have a fitted effect of over 50% in size; tested in ME-180 cells; beta-lactamase reporter
SmPrx2 inh: Schistosoma mansoni Prx2 inhibition; 65,000 tested, 0.07% active; Potency, µM; S. mansoni Prx2 activity coupled to TGR/GSH (TGR is thioredoxin glutathione reductase), NADPH fluorescence loss, qHTS; some inactives read as strong as hits; active means full or partial inhibition curve with a strong effect at the top dose; inconclusive means weaker partial or single-point curve; inactive means no accepted curve; note: series up to 57 µM; many of its hits are not listed in these tables
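Prx2 inhibition was measured as reduced NADPH consumption when electrons flowed from NADPH through TGR and glutathione to Prx2 and H2O2. Plates were read kinetically over 8 min; enzyme reagents were held at 4 deg C during dispensing.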
* hit, by the source's call; ? = inconclusive; / = not tested or not shown; [ ] = another dose, or the depositor's remark. Potency is the fitted concentration of half-maximal effect. An excerpt; the hit share may differ from the screen's.

SMILES	Anthrax LT inh	SmPrx2 inh
CC1=C(C(=O)NC2CCCC(C)C2C)C2(CCCCC2)OC1=O (configuration not stated)	-24%	>57
CSCCC1NC(=O)N(CC(=O)Nc2ccc(N3CCCCC3)cc2)C1=O (configuration not stated)	10%	>57
CCc1ccccc1NC1=NCC(=O)N1C1CCCCC1	-8%	>57
COC(=O)c1ccccc1NC(=O)CSc1nc2ccccc2c(=O)[nH]1	7%	>57
CC(=O)NCCc1ccc(S(=O)(=O)Nc2cccnc2)cc1	14%	>57
COC(=O)C1C2c3ccccc3OC1(C)N=c1s/c(=C/c3cn(C)nc3C)c(=O)n12 (configuration not stated)	-8%	>57
C=CCOC(=O)c1[nH]c2c(c1C)C(=O)CC(c1ccco1)C2 (configuration not stated)	?	>57
COc1ccc(-c2oc3ncn(CCN4CCOCC4)c(=N)c3c2-c2ccc(OC)cc2)cc1	?	>57
O=C(CN1C2CCCC1CC(NC(=O)c1ccco1)C2)Nc1ccccc1C(F)(F)F (configuration not stated)	-3%	>57
Cc1nn(C)c(C)c1CN(C)C(=O)c1cc2nc(-c3ccco3)cc(C(F)(F)F)n2n1	-6%	>57
COc1ccc(-c2cc(N)n(S(=O)(=O)c3c(F)c(F)c(F)c(F)c3F)n2)cc1OC	?	?
Cc1cc(Cl)c(S(=O)(=O)Nc2ccc3c(c2)OCCO3)cc1OCC(N)=O	/	>57
CC1(O)C(=O)C=C2C=C(CCCCOCc3ccccc3)OC=C2C1=O (configuration not stated)	4%[8 µM]	/
CCOc1ccc(S(=O)(=O)Nc2ccc(S(=O)(=O)N3CCOCC3)cc2)cc1	-10%	>57
O=C(COc1ccccc1)Nc1ccccc1N1CCN(c2ccccc2)CC1	-27%	>57
CC(C)Oc1cc(O)c2c(c1)OCC=C2CCC(=O)O	-3%[8 µM]	>57
O=C(O)/C=C\C(=O)Nc1ccc2c(c1)C(=O)c1cc(F)ccc1-2	-9%[8 µM]	>57
CS(=O)(=O)N(CCc1ccccc1)CC(=O)NCc1ccc2c(c1)OCO2	1%	>57
O=C(CSc1nnc(-c2cccs2)n1-c1ccccc1)N1CCOCC1	-1%	?
OC1(c2cccc(F)c2)CCN(Cc2ccncc2)CC1	-1%	>57

The last 3 compounds of the part before are carried over, then new ones follow.
SMILES	Anthrax LT inh	SmPrx2 inh
CS(=O)(=O)N(CCc1ccccc1)CC(=O)NCc1ccc2c(c1)OCO2	1%	>57
O=C(CSc1nnc(-c2cccs2)n1-c1ccccc1)N1CCOCC1	-1%	?
OC1(c2cccc(F)c2)CCN(Cc2ccncc2)CC1	-1%	>57
Cc1sc2ncn(-n3c(C)ccc3C)c(=O)c2c1C	13%	>57
COC(=O)CN(c1ccc2c(c1)OCO2)S(C)(=O)=O	?	>57
COc1ccc(C[C@@H]2NC[C@H](O)[C@@H]2OC(C)=O)cc1	?	>57
O=C1NC(=O)C2(CCc3ccccc32)N1 (configuration not stated)	-3%	>57
O=C(CCC1CCCC1)NCCCN1CCOCC1	-9%	>57
CN(C(=O)COC(=O)C1CCN(S(=O)(=O)c2cccs2)CC1)C1CCS(=O)(=O)C1 (configuration not stated)	15%	>57
CCOc1cccc(-c2nnc(SCC(=O)Nc3cc(C)ccc3OC)n2N)c1	3%	>57
CCCNc1nc2c(c(=O)n(C)c(=O)n2C)n1CCc1ccccc1	-1%	>57
CCC/C=C(\CCC)C(NC(=O)CCc1ccccc1)c1ccc(C(F)(F)F)cc1 (configuration not stated)	-6%	>57
O=C(CCNS(=O)(=O)c1cccc2nsnc12)NCCC1=CCCCC1	-14%	>57
O=C(NCc1ccco1)c1ccc2c(c1)C(=O)N(Cc1ccccc1)C2=O	?	>57
COc1ccc(C2CC(c3ccc(F)cc3)Nc3nc(N)nn32)cc1 (configuration not stated)	?	>57
CCc1nnc(NC(=O)CN2CCN(c3nc(-c4ccccc4)cs3)CC2)s1	-7%	>57
O=C1C2CC=CCC2C(=O)N1c1ccc(OCC(O)Cn2nnc3ccccc32)cc1 (configuration not stated)	-2%	>57
O=C(O)CCSc1nc2ccc(Br)cc2[nH]1	-1%	>57
COc1ccc2[nH]c(=O)c(CN(CCN(C)C)C(=O)NCc3ccccc3)cc2c1	3%	>57
CC(C)CCn1c(NCCN(C)C)nc2c1c(=O)[nH]c(=O)n2C	-7%	>57
COc1ccccc1CNC(=O)c1cc2sccc2n1C	?	>57
COC(=O)COc1ccc(S(=O)(=O)N2CCOCC2)cc1C	?	>57
Cc1ccc(S(=O)(=O)Cn2nnnc2C(CC(C)C)N2CCN(c3ccc(F)cc3)CC2)cc1 (configuration not stated)	-21%	>57

Part of the list above in order of heavy-atom count, lowest first.
SMILES	Anthrax LT inh	SmPrx2 inh
Cc1sc2ncn(-n3c(C)ccc3C)c(=O)c2c1C	13%	>57
COc1ccccc1CNC(=O)c1cc2sccc2n1C	?	>57
O=C(NCc1ccco1)c1ccc2c(c1)C(=O)N(Cc1ccccc1)C2=O	?	>57

(listing goes on)
SMILES	Anthrax LT inh	SmPrx2 inh
Cc1ccc2nc(CSc3nnc(Cc4cccs4)n3C3CCCCC3)cc(=O)n2c1	?	>57
CC1(C)CC(=O)C([C@H]2C3=C(CC(C)(C)CC3=O)Oc3ccccc32)C(=O)C1	13%	>57
O=C(c1ccc(Cl)c(F)c1F)N1CCCC1	14%	>57
CC1=C(C(=O)OCc2ccccc2)C(c2ccc(Cl)cc2)NC(=O)N1CCCCCC(=O)O (configuration not stated)	2%	>57
CC(C(=O)Nc1ncc2c(n1)CC(C)(C)CC2=O)N1C(=O)c2ccccc2C1=O (configuration not stated)	-3%	>57
CC(=O)c1cccc(NC(=O)c2nccnc2C(=O)O)c1	?	>57
O=C1CCCc2c1[nH]c1ccc(CN3CCCCC3)cc21	9%	>57
CCCCc1ccc(NC(=O)c2c(C)noc2C)cc1	9%	>57
O=C(CC(Cc1ccccc1)C(=O)O)NCCc1ccc2c(c1)OCO2 (configuration not stated)	0%	>57
CC(=O)S[C@@H]1CC2=CC(=O)CC[C@@]2(C)[C@H]2CC[C@]3(C)[C@H](CC[C@@]34CCC(=O)O4)[C@H]12	9%	>57
Cc1cc(C)n(-c2ccn(Cc3ccc(Cl)cc3Cl)c(=O)n2)n1	1%	>57
Cc1ccc(Nc2cc(C)nn2-c2nc(C)cc(C)n2)cc1	-12%	>57
Cn1c(SCC(=O)N2CCCCC2)nc2cccnc21	0%	>57
CCC1C(=O)n2nc(-c3ccccc3)cc2N=C1C (configuration not stated)	4%	>57
COc1cc(OC)cc(C(=O)NC(C(=O)NCCN(C)C)C23CC4CC(CC(C4)C2)C3)c1 (configuration not stated)	10%	>57
Cn1c(=O)c2cn(-c3cccc4ccccc34)cc2n(C)c1=O	-5%	>57
COc1ccccc1N1CCN(C(c2ccccc2Cl)c2nnnn2C(C)(C)C)CC1 (configuration not stated)	-5%	>57
O=c1[nH]c2ccccc2nc1-c1cccs1	?	>57
CCN1CCN(c2c(Cl)cccc2NC(=O)c2ccc(Br)o2)CC1	?	>57
CC(C)CO/N=C1/C[C@@H](O)[C@@H](O)[C@@H]2[C@@H]3C(=O)N([C@@H](C)c4ccccc4)C(=O)[C@H]3CC[C@H]12	-1%[8 µM]	/

Structural class, the entries above with two or more sulfur atoms.
SMILES	Anthrax LT inh	SmPrx2 inh
CCOc1ccc(S(=O)(=O)Nc2ccc(S(=O)(=O)N3CCOCC3)cc2)cc1	-10%	>57
O=C(CSc1nnc(-c2cccs2)n1-c1ccccc1)N1CCOCC1	-1%	?
CN(C(=O)COC(=O)C1CCN(S(=O)(=O)c2cccs2)CC1)C1CCS(=O)(=O)C1 (configuration not stated)	15%	>57
O=C(CCNS(=O)(=O)c1cccc2nsnc12)NCCC1=CCCCC1	-14%	>57
CCc1nnc(NC(=O)CN2CCN(c3nc(-c4ccccc4)cs3)CC2)s1	-7%	>57
Cc1ccc2nc(CSc3nnc(Cc4cccs4)n3C3CCCCC3)cc(=O)n2c1	?	>57

Next section.
SMILES	Anthrax LT inh	SmPrx2 inh
COc1cc(C)c(C)cc1S(=O)(=O)N1CCN(Cc2ccc3c(c2)OCO3)CC1	-3%	>57
O=c1c(-c2cc(F)cc(F)c2)nc2cnc(Oc3ccccc3)nc2n1C[C@H]1CCCO1	?	>11
c1ccc(Cn2nnc3c(N4CCCCCC4)ncnc32)cc1	-23%	>57
CC(C)c1ccc(Nc2nc(NCc3ccco3)nc(N3CCOCC3)n2)cc1	?	>57
CC(C)Oc1ccc2c(=O)c3cc(C(=O)O)ccc3oc2c1	?	>57
COC(=O)c1ccc(-c2cc(C(=O)O)c3cc4c(cc3n2)OCCO4)cc1	-21%	>57
Cc1cc(NC(=O)c2cnn3cccnc23)no1	12%	>57
COc1ccc2nc(NC(=O)CN3CCN(C)CC3)sc2c1	-6%	>57
O=P(O)(O)c1ccccc1 (tested in a mixture with another compound)	10%[8 µM]	>57
O=C(NCCc1ccccn1)c1n[nH]c(=O)c2ccccc12	-3%	>57
COc1c(Cl)cc(Cl)cc1/C=N/n1cnnc1	6%	>57
[O-]/[N+](=N\O)c1ccccc1	15%	/
CCC1CCCCN1S(=O)(=O)c1ccc(S(=O)(=O)N2CCN(S(=O)(=O)CC)CC2)cc1 (configuration not stated)	-9%	>57
O=C1C2CCCN2C(c2cccs2)N1c1ccc(Cl)cc1 (configuration not stated)	4%	/
CCCn1c(CN(C)Cc2ccccc2)nc2c1c(=O)n(C)c(=O)n2C	-6%	>57
COc1ccc(-c2noc(CCC(=O)NCc3cccnc3)n2)cc1OC	-13%	>57
C=CC(=O)CC	-4%	/
COc1ccccc1Cc1nc(-c2ccc(Br)o2)no1	?	>57
COC(=O)CC1=C(C(=O)OC)C(c2cccs2)C(C#N)=C(N)O1 (configuration not stated)	?	>57
O=C(c1cc2nc(C3CC3)cc(C(F)F)n2n1)N1CCOCC1	-4%	>57

Fetched one by one from above (two):
SMILES	Anthrax LT inh	SmPrx2 inh
O=C(c1cc2nc(C3CC3)cc(C(F)F)n2n1)N1CCOCC1	-4%	>57
COc1ccc2nc(NC(=O)CN3CCN(C)CC3)sc2c1	-6%	>57

Next section
SMILES	Anthrax LT inh	SmPrx2 inh
CCOC(=O)c1c(C)nc(-c2ccccc2)nc1NC(=O)C(C)C	/	>57
O=C(NC(=O)c1ccccc1)OCC(F)(F)F	-2%	>57
CCCSC1=C(C#N)C(c2ccc(Cl)cc2Cl)CC(=O)N1 (configuration not stated)	-11%	/
COC(=O)CSc1nnnn1-c1ccccc1	?	>57
O=C(OCc1c(Cl)cccc1Cl)c1cnccn1	2%	>57
CCCOC(=O)c1ccc(Oc2cn[nH]c2-c2ccc(OCC)cc2O)cc1	?	/
CCN(CC)C(=O)CSc1nnc(-c2cccnc2)n1CCc1ccccc1	-2%	>57
COCCCn1c(Cc2ccccc2)nnc1SCC(=O)N1CCCCC1	-6%	>57
CC1(C)Oc2ccc(C(=O)N3CCOCC3)cc2N(CC(=O)Nc2ccccc2)C1=O	?	>57
O=C(c1cc2ccccc2oc1=O)N1CCSC1c1ccco1 (configuration not stated)	-1%	>57
CNC(=O)c1c(NC(=O)c2nc3ccccc3s2)sc2c1CCC2	?	>57
O=C1NC2(CCCc3ccccc32)C(=O)N1Cc1nnc(-c2ccccc2Br)o1 (configuration not stated)	-17%	>57
Cc1csc(NC(=O)CSc2nc3sc(C)c(C)c3c(=O)[nH]2)n1	9%	?
O=C(c1ccc(CS(=O)(=O)c2ccc(Br)cc2)o1)N1CCOCC1	4%	>57
Clc1cccc(Cl)c1C(Nc1nncs1)Nc1nncs1	7%[8 µM]	>57
O=C(NCCN1CCc2ccccc2C1)C1CCN(S(=O)(=O)N2CCC3(CC2)OCCO3)CC1	-17%	>57
COc1cccc(NC(=O)c2ncn[nH]2)c1	/	>57
COC(=O)CC1NC2CCCCC2NC1=O (configuration not stated)	-4%	>57
Cc1ccc(NC(=O)c2ocnc2C)cc1Cl	/	>57
COc1ccccc1NC(=O)CSc1nc2ncccc2[nH]1	?	/
O=C(OC(C(=O)NC1CCCC1)c1ccc(F)cc1)c1ccno1 (configuration not stated)	?	>57
CCOc1ccccc1NC(=O)Cn1nnc(C(=O)NCc2ccco2)c1N	?	>57
Cn1cnnc1SCC(=O)c1cc2ccccc2oc1=O	12%	>57
COc1cc(C(c2nnnn2C2CCCC2)N2CCc3ccccc3C2)ccc1O (configuration not stated)	-3%	>57
O=C(Nc1cccc(-c2nnn(CC(=O)N3CCc4ccccc4C3)n2)c1)C1CCC1	-4%	>57
CCn1c(SCC(=O)c2cc(C)n(-c3ccc(C(=O)OC)cc3)c2C)nnc1-c1cccnc1	-7%	>57
CCOc1ccc(Br)cc1S(=O)(=O)N1CC(C)OC(C)C1 (configuration not stated)	-6%	>57
COC(=O)c1ccccc1NC(=O)Cn1cnc2c1c(=O)n(C)c(=O)n2C	-5%	>57
CCOC(=O)c1ccc2[nH]c3c(c2c1)CCCCC3=O	-6%	>57
Cc1c(NC(=O)CSc2ccc3c(c2)OCCO3)c(=O)n(-c2ccccc2)n1C	5%	>57
O=C1C2C3C=CC(C2C(=O)N1CN1CCOCC1)C1C2C(=O)N(CN4CCOCC4)C(=O)C2C31 (configuration not stated)	?	>57
C[C@@H](NC(=O)/C(C#N)=C/c1ccc(O)c(O)c1)c1ccccc1	-4%	>57
CCn1c(/C(C#N)=C(\O)CCc2ccccc2)nc2ccccc21	-8%	>57
COc1ccc(C2=CC(c3c(C)nn(-c4ccccc4)c3Cl)n3nnnc3N2)cc1OC (configuration not stated)	?	>57
CCCCn1c(SCC2CCCCO2)nc2cc(S(N)(=O)=O)ccc21 (configuration not stated)	10%	>57
